Bioassay records from PubChem BioAssay.
SMN2 splice up – increases expression of the SMN2 splice variant. HEK293 SMN2-luciferase splicing reporter, luminescence, 30-36 h. hit rate 2.8% among 210,000. Potency, µM (doses to about 46.1 µM), for the others: at the top dose activity change, positive = activation, most hits filed as activators; note: % of control where 0% means no effect; nearly all actives have a fitted effect of over 55% in size
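qHTS luciferase splicing reporter: luminescence rises when SMN2 exon 7 is included in transfected HEK293 cells. Compound exposure lasted 30-36 h at 37C, with 4.5 mM final sodium butyrate as control, followed by a ONE-Glo read.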
Tau ThT inhib – inhibitors of human tau fibril formation, thioflavin T binding; recombinant tau K18 P301L, heparin-induced fibrillization, ThT fluorescence; Potency, µM (highest dose often 57.4 µM), inactives show at the highest dose activity, negative = inhibition, usual class: inhibitors; hit rate 2.1% among 270,000; AID 1460; note: % is set by controls: 0 for no effect and ±100 for the full control effect; nearly all actives have a fitted effect of over 55% in size
Target sequence (P10636 561-689 P618L limits assumed): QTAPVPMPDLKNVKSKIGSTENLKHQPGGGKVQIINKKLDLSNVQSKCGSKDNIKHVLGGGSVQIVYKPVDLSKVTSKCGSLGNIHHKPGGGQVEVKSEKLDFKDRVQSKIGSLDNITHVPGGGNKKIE
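Using a mix of unlabeled (15 uM) and Alexa 594-labeled (0.24 uM) tau K18 P301L, heparin-triggered fibrillization over 6 hr at 37 C was scored by ThT fluorescence.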
HttQ103 aggreg – inhibitors of mutant huntingtin aggregate formation in PC12 cells; PC12 HttQ103-GFP aggregates, Acumen cytometry, 40 h; Potency, µM (series often up to 46.1 µM), for inactives: at the top dose activity change, negative = inhibition, usual class: inhibitors; hit rate 1.1% among 220,000; note: % is set by controls: 0 for no effect and ±100 for the full control effect; nearly all actives have a fitted effect of over 60% in size
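Aggregate formation scored by laser-scanning cytometer (488 excitation, 500–530 emission) in lysed PC12 cells expressing Q103-GFP after 100 nM tebufenozide induction; library tested in dose series, with ATPLite reagent added in the multiplex.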
ALDH1A1 inh – ALDH1A1 (human) enzyme inhibition | AID 1030 | Potency, µM (series often up to 75.3 µM), inactives show top-dose activity, negative = inhibition, hits mostly inhibitors | P00352 | Purified ALDH1A1, NADH fluorescence, propionaldehyde substrate | hit rate 7.3% among 220,000; active = well fitted inhibition curve with a large enough effect, not every such curve was filed as active; inconclusive = small, poorly fitted or top-dose-only effect, or another doubt; inactive = no such curve, though single readings can be large or run the other way;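 note: plate controls were no enzyme wells and a reference inhibitor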
Target sequence (P00352 whole entry, looked up): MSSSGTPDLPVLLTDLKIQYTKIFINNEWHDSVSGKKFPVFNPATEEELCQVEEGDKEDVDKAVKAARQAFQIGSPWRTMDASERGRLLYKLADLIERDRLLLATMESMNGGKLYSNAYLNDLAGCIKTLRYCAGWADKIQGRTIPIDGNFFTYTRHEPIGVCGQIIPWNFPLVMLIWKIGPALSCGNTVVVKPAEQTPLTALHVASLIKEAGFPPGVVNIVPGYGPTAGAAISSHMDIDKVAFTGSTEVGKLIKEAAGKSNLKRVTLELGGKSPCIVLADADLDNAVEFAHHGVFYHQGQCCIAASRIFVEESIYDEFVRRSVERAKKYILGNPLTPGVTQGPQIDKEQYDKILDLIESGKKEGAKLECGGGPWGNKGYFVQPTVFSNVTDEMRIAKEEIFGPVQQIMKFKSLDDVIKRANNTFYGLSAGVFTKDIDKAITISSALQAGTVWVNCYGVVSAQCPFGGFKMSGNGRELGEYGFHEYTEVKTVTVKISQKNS
Tau fluor cs – counter-screen for tau fibril formation inhibitors. hit rate 0.93% among 280,000. Potency, µM (top dose mostly 57.7 µM), for inactives: at the highest dose activity change, negative = decrease. tau K18 P301L Alexa594 fluorescence, heparin fibrillization. AID 1463; note: % is set by controls: 0 for no effect and ±100 for the full control effect; nearly all actives have a fitted effect of over 55% in size
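Human tau K18 P301L (15 uM unlabeled, 0.24 uM Alexa 594-labeled) in 100 mM sodium acetate pH 7 with 20 uM heparin, 6 hr at 37 C. ThT 30 uM added, 1 hr ambient; Alexa 594 FP and total fluorescence read at 555/632 nm.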
HTT ATP protect – Huntington cell model cytoprotection by ATP luminescence | PC12 HTT-Q103 induced, cytoprotection, ATP luminescence, 40 h | Potency, µM (highest dose often 56.4 µM), for inactives: cytoprotection (ATP increase), actives largely listed as activators | hit rate 0.14% among 230,000 | AID 1471;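 note: % of control where 0% means no effect; nearly all actives have a fitted effect of over 45% in size; toxic huntingtin expression switched on by the ecdysone agonist tebufenozide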
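Compounds were screened for protection of PC12 cells against cell death after tebufenozide induction (100 nM final) of mutant Huntingtin exon 1 (Q103) fused to GFP.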
Tau FP inhib – inhibitors of human tau fibril formation. K18 P301L tau heparin fibrillization, Alexa594 FP, 6 h. AID 1468. hit rate 0.39% among 280,000. Potency, µM (series often up to 57.7 µM), without a hit: at the top dose activity, negative = inhibition, actives largely listed as inhibitors; note: % is set by controls: 0 for no effect and ±100 for the full control effect; nearly all actives have a fitted effect of over 55% in size
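Heparin (20 uM) drove fibril formation of recombinant tau K18 P301L, 15 uM unlabeled with 0.24 uM Alexa 594 label, for 6 hr at 37 C in 100 mM sodium acetate pH 7. Fluorescence polarization (555/632 nm) read 1 hr after 30 uM ThT.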
* marks the source's active call; other numbers are inactive results; ? = inconclusive; nt = not tested or not shown; & = joins results of further samples; [ ] = remark or other dose. Unless noted, calls come from the whole dose curve; as a rule, active = well fitted curve in the direction sought with a large enough effect; inconclusive = small, poorly fitted or top-dose-only effect, or another doubt; inactive = no such curve, though single readings can be large; an effect the other way counts as inactive or inconclusive. Potency is the fitted concentration of half-maximal effect. Not all compounds are listed; count on the stated rates, not on these rows.

Molecule | SMN2 splice up | Tau ThT inhib | HttQ103 aggreg | ALDH1A1 inh | Tau fluor cs | HTT ATP protect | Tau FP inhib
Cc1oc(-c2ccc(-c3ccccc3)cc2)nc1CN(C)C1CCOC1 (configuration not stated) | nt | -17% | -6%[9.22 µM] | -9% | -8% | -1%[10 µM] | 13%
O=c1c2c(nc3nc(NCc4ccccc4Cl)[nH]n13)CCC2 | -5% | 4% | 2% | 2% | 7% | -10% | 4%
COc1cc(OC)cc(C(=O)N2CCC(N3CCN(c4ccccc4OC)CC3)CC2)c1 | 3% | -5% | -12% | ? | 0% | -7%[0.074 µM] | 2%
O=C(c1cccc(Cl)c1)N1CCC(=O)N([C@H](COCc2cccc(Cl)c2)Cc2ccccc2)CC1 | nt | -13% | nt | -7%[50.4 µM] | -11% | -52%[inhibitor][40.3 µM] | 9%
CC1(OC(=O)C2CCCC2)C(=O)C=C2C=C(c3ccsc3)N(CCCCO)C=C2C1=O (configuration not stated) | 7%[9.22 µM] | ? | ? | -3%[13.5 µM] | -26%[11.6 µM] | -18%&-3%[10 µM] | -9%[11.6 µM]
ONc1cccnc1-n1nc(C(F)(F)F)cc1C(F)(F)F | -10% | ? | 0%[9.22 µM] | ? | ? | 12% | -19%
Cc1cc(NC(=O)NC2(C(F)(F)F)Oc3ccc(Cl)cc3O2)no1 (configuration not stated) | ? | -7% | 20% | -2% | -13% | -22%[10 µM] | ?
CCOC(=O)c1nnsc1NC(=O)Nc1ccc(OC)cc1 | 6% | 0% | 17% | ? | -4% | -34% | -6%
CC(NC(=O)c1cc(-c2ccccc2)nc2ccccc12)C1CCCO1 (configuration not stated) | 9% | 0% | 3%[9.22 µM] | 4% | -1% | -2%[10 µM] | -2%
COc1cc(C(c2nnnn2C(C)(C)C)N2CCN(c3nc4ccccc4s3)CC2)ccc1O (configuration not stated) | 9% | ? | ? | ? | -30% | 21% | ?
CCC(=O)N1C(=O)CCN(C(C)=O)c2ccccc21 | -15% | 6% | 5% | -8% | 10% | -14%[10 µM] | 7%
CC(C)NCCCCOc1ccccc1-c1ccccc1 | -15% | -12% | 14% | ? | -16% | nt | -1%
O=C(c1ccco1)N1CCN(c2nc(C3CC3)nc3sc4c(c23)CCCC4)CC1 | -11% | ? | ? | 22µM* | -8% | 3%[10 µM] | 5%
COc1ccc(OC)c(-n2c(-c3cccc(O)c3)n[nH]c2=S)c1 | 3% | 2% | 12% | 10µM* | 2% | 23%[1.9 µM] | -4%
COc1cccc(OC)c1C(=O)N1CCN(Cc2ccncc2)CC1 | -11% | -9% | -13% | 14µM* | -6% | 8%[10 µM] | -1%
CS(=O)(=O)N(Cc1ccco1)CC(O)Cn1cc(C=O)c2ccccc21 (configuration not stated) | -14% | -10% | 1%[9.22 µM] | 1.3µM* | -1% | 12% | 1%
Cc1ccc([N+](=O)[O-])cc1-c1ccc2cccc(C)c2n1 | -25% | -4% | 11% | -1% | -7% | 13% | -1%
CC(C)NC(=O)NC(=O)CSc1nnc(C(F)(F)F)n1C | -8% | -1% | 7% | 18% | 5% | 11%[10 µM] | 0%
O=[N+]([O-])c1cccc(CNc2ccc3c(c2)CCC3)c1 | -5% | ? | -9% | 22µM* | ? | nt | ?
Cc1ccc(-n2c(COc3cccc(C)c3)n[nH]c2=S)cc1 | nt | -5% | -10%[9.22 µM] | 0% | -14% | 23%[10 µM] | -9%
c1ccc(-c2cc(N3CCCCCC3)n[nH]2)cc1 | ? | ? | 17% | ? | -29% | 5% | -11%
O=[N+]([O-])c1cc(CN2CCN(c3cccc(C(F)(F)F)c3)CC2)c2cccnc2c1O | -95%[inhibitor] | 16µM* | 8.9µM* | 18µM* | -16% | -138%[inhibitor] | 1%
COc1ccc(C(=O)N2CCC(n3c(C)nc4cc(F)ccc43)CC2)cc1 | -57%[inhibitor] | -7% | -10% | -2% | 0% | 9% | 5%
CC(C)CNC(=S)N1CCN(Cc2ccc3c(c2)OCO3)CC1 | nt | -12% | 8%[9.22 µM] | ? | -16% | 11%[10 µM] | 4%
CNCCC1Sc2ccccc2Oc2ccccc21 (configuration not stated) | -15% | -2% | 1% | -6% | -5% | nt | 0%
COc1ccc(C(=O)Nc2cccnc2)cc1 | 17% | 9% | 16% | -9% | -5% | -31% | 3%
O=C/C(=C\Nc1ccccn1)c1nc2ccccc2o1 | 25% | ? | 2% | -9% | -15% | 8%[10 µM] | -12%
COc1ccc(NC(=O)CN2CCCN(S(=O)(=O)c3ccc(F)cc3)CC2)c(OC)c1 | nt | -12% | 0% | -16% | -21% | -40%[inhibitor] | -1%
CN1CCN(c2ccc(C(=O)NC3CCCCC3)cc2[N+](=O)[O-])CC1 | -18% | -7% | 16% | -12% | -1% | -43%[inhibitor] | 6%
COc1ccc(C(=O)N/N=C/c2ccccn2)cc1OC | nt | ? | ? | -1% | -18% | -77%[inhibitor] | 3%
CC(C)Sc1nc2sc3c(c2c2nnc(SCC(=O)NCc4ccco4)n12)CCCC3 | -8% | ? | 13% | -15% | -17% | -27%[0.074 µM] | -8%
O=C1Nc2c(c(=O)[nH]c(=O)n2-c2ccc(F)cc2)C1(NS(=O)(=O)c1ccccc1)C(F)(F)F (configuration not stated) | nt | nt | -4%[9.22 µM] | nt | -17% | 5%[10 µM] | -3%
Cc1cc(C)c2cc3c(N)c(C(=O)N4CCOCC4)sc3nc2c1 | nt | 22µM* | 0%[9.22 µM] | ? | ? | 15%[10 µM] | 0%
O=C(COc1ccccc1)NC(=S)Nc1ccc2c3c(cccc13)CC2 | -3% | -19% | 2% | ? | -30% | 9% | -15%
CCOC(=O)C1=C(C)NC(=O)NC1c1c(C)nn(-c2ccccc2)c1Cl (configuration not stated) | -11% | -3% | -5% | ? | -4% | 4%[10 µM] | -9%
Cc1cc(-c2csc(NC(=O)c3ccc(C#N)cc3)n2)c(C)n1Cc1ccco1 | -60%[inhibitor] | ? | 5% | 2% | -29% | -7%[10 µM] | 5%
C=CCc1cc(Cl)ccc1OCCOCCNC(C)CC (configuration not stated) | nt | -5% | 17%[9.22 µM] | -9% | -6% | 5%[10 µM] | -4%
COC(=O)c1sc2nc3c(c(-c4cccs4)c2c1N)CCCC3 | -20% | -13% | 2% | ? | -2% | nt | 11%
NC(=O)c1sc2nc3c(cc2c1N)CCC3 | ? | ? | -33% | -1% | -18% | 7%[10 µM] | 0%
CC(C)(C)c1ccc(OCC(O)CSc2ncn[nH]2)cc1 (configuration not stated) | ? | -17% | -19% | 4% | -8% | -20% | 6%
CCN(CC)C(=O)CNc1ccc(C(F)(F)F)cc1[N+](=O)[O-] | 10% | -9% | -6% | -3% | 4% | 1%[0.074 µM] | 5%
O=C(Nc1cccc(S(=O)(=O)NC2=NCCCCC2)c1)c1cc(-c2ccccc2)nc2ccccc12 | 10% | -5% | 22% | -4% | ? | nt | ?
CC(C)(C)OC(=O)NCCC(=O)N/N=C/c1cccc2nccnc12 | nt | -8% | 14%[9.22 µM] | 7% | -8% | 8%[10 µM] | -5%
CC(C)c1ccc(NC(=O)CN(Cc2ccccc2)S(C)(=O)=O)cc1 | -22% | 1% | -5% | -6% | -7% | 6%[10 µM] | 3%
N=C(SC1CC(=O)N(c2ccc(F)cc2)C1=O)N1N=C(c2ccccc2)CC1c1ccccc1 (configuration not stated) | 7% | 10% | 15% | -1% | -7% | -10% | 7%
O=C(CSc1ccc2nnc(-c3cccnc3)n2n1)NCc1ccco1 | -31% | ? | -16% | ? | -10% | -8% | -6%
CCOC(=O)N1CCN(CC(O)COc2c(C)cccc2C)CC1 (configuration not stated) | -7% | 12% | 2% | 5% | 19% | -13%[10 µM] | -1%
CCN(CC(=O)Nc1ccc(C(=O)OC)cc1)Cc1ccccc1 | -9% | ? | 1% | ? | 18% | -29% | -2%
CN(C)S(=O)(=O)c1cccc(-c2nnc(SCCNCCO)n2-c2ccc(F)cc2)c1 | 8% | 0% | 1% | ? | -1% | -24% | -8%
C=CCN1C(=O)C2(NNc3ccccc3O2)c2ccccc21 (configuration not stated) | 1% | 7.1µM* | 13%[9.22 µM] | 1.6µM* | 13µM*[quencher] | -9% | 4%
CN(Cc1nc2ccc(F)cc2[nH]1)Cc1c(C(=O)N(C)C)nc2ccc(Cl)cn12 | nt | -11% | 10%[9.22 µM] | 3% | -12% | 5%[10 µM] | -6%
c1ccc(-c2ccccc2OCCOCCN2CCCCC2)cc1 | -4% | 5% | -9% | -10% | -3% | -9%[10 µM] | 6%
S=c1[nH]nc(Cc2ccc(Cl)cc2)n1-c1ccc2c(c1)OCCO2 | nt | -3% | 2%[9.22 µM] | 0% | -4% | -8%[10 µM] | 4%
COc1ccccc1-c1n[nH]c(=S)o1 | 19% | -9% | -4% | ? | 1% | 9%[10 µM] | 0%
Cc1ccc(/C=C/c2nnc(-c3ccccc3)o2)cc1 | ? | -14% | 33% | -9% | -8% | -30% | -3%
Cc1ccc(Nc2c(N)c(=O)oc3ccccc23)cc1 | ? | ? | ? | ? | ? | -19%[10 µM] | 12%

Reformatted with two lines to a compound: entries from further up.
Each structure is followed by: SMN2 splice up, Tau ThT inhib, HttQ103 aggreg, ALDH1A1 inh, Tau fluor cs, HTT ATP protect, Tau FP inhib
S=c1[nH]nc(Cc2ccc(Cl)cc2)n1-c1ccc2c(c1)OCCO2
 : nt, -3%, 2%[9.22 µM], 0%, -4%, -8%[10 µM], 4%
COc1ccccc1-c1n[nH]c(=S)o1
 : 19%, -9%, -4%, ?, 1%, 9%[10 µM], 0%
Cc1ccc(/C=C/c2nnc(-c3ccccc3)o2)cc1
 : ?, -14%, 33%, -9%, -8%, -30%, -3%

(cont.)
Molecule | SMN2 splice up | Tau ThT inhib | HttQ103 aggreg | ALDH1A1 inh | Tau fluor cs | HTT ATP protect | Tau FP inhib
COc1cccc(C2C(C(=O)c3sc(C)nc3C)=C(O)C(=O)N2CCN2CCOCC2)c1 (configuration not stated) | 3% | -7% | 5% | 20µM* | 8% | -11%[0.074 µM] | 7%
O=C(C(c1ccccc1)N1CCOCC1)N1CCOCC1 (configuration not stated) | -9% | 7% | 20% | ? | 7% | -1% | 2%
CCCN1CCN(C(=O)CCCNC(=O)Cn2cnc3sc(C)c(C)c3c2=O)CC1 | 10% | -9% | 14% | -11% | -4% | -12% | -3%
COc1ccc(C2C3=C(Nc4ncnn42)c2ccccc2CC3)cc1OC (configuration not stated) | -14% | ? | ? | -10% | -24% | -28%[10 µM] | -5%
Cc1cc2ccccc2c(=O)n1CC(=O)NCCC1=CCCCC1 | -12% | ? | -5% | 25µM* | -8% | -30%[inhibitor] | 1%
CCn1nc(NC(=O)C2CCCO2)c2cc3cccc(C)c3nc21 (configuration not stated) | nt | -7% | -4%[9.22 µM] | nt | -11% | 15%[10 µM] | 5%
S=c1[nH]nc(-c2ccc(Cl)cc2)n1-c1ccc2c(c1)OCCO2 | -18% | -12% | 11% | ? | -11% | nt | 1%
